Screens: PubChem, National Center for Advancing Translational Sciences (NCATS)
Lassa entry inh = qHTS for Inhibitors of binding or entry into cells for Lassa Virus; Lassa virus pseudotype entry inhibition, cell reporter; control for the full effect not named in the record; Potency, µM (highest dose often 37.9 µM), without a hit: top-dose activity change, negative = inhibition, usual class: inhibitors; hit rate 1.2% among 300,000; AID 540256, 2011; active means well fitted inhibition curve with a large enough effect; inconclusive means small, poorly fitted or top-dose-only effect, or effect the other way; inactive means flat fitted curve, though single readings scatter; tested in HEK293 cells; also: % is scaled to controls: 0 for no effect and ±100 for the full control effect; nearly all actives have a fitted effect of over 50% in size; luciferase read-out
RE007 growth inh = qHTS Assay for Inhibitors of the HIV-1 protein Vpr; S. pombe RE007 Vpr strain, BacTiter-Glo ATP luminescence, 24 h; control for the full effect not named in the record; Potency, µM (top dose mostly 92.2 µM), for inactives: at the top dose activity change, negative = less growth; hit rate 0.21% among 360,000; AID 651644, 2012; active = well fitted falling curve with a large enough effect; inconclusive = small, poorly fitted or top-dose-only effect; inactive = no such curve, though single readings can be large or run the other way;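 also: % is scaled to controls: 0 for no effect and ±100 for the full control effect; nearly all actives have a fitted effect of over 50% in size; the assay follows cell death caused by Vpr and the record does not say whether a fall means rescue or toxicity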
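Fission yeast RE007 carrying one integrated HIV-1 vpr copy, seeded at OD 0.01 in PMG+AL medium with 23 nL pinned compound. Grown 24 h at 30 degrees; viability read by BacTiter-Glo luminescence after 5 min.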
Cruzain noTriton = qHTS Assay for Promiscuous and Specific Inhibitors of Cruzain (without detergent); Cruzipain (Trypanosoma cruzi), P25779; purified cruzain, Z-FR-AMC fluorescence, no detergent; Potency, µM, for inactives: max response, negative = inhibition, hits mostly inhibitors; hit rate 2.3% among 200,000; AID 1476, 2009; active = well fitted curve in the direction sought with a large enough effect; inconclusive = small, poorly fitted or top-dose-only effect, or another doubt; inactive = no such curve, though single readings can be large; an effect the other way counts as inactive or inconclusive;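 also: plate controls were enzyme without inhibitor for no effect and buffer without enzyme for full effect; nearly all actives have a fitted effect of over 40% in size; top concentration of the series not given in the record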
Target sequence (P25779 123-467 limits assumed): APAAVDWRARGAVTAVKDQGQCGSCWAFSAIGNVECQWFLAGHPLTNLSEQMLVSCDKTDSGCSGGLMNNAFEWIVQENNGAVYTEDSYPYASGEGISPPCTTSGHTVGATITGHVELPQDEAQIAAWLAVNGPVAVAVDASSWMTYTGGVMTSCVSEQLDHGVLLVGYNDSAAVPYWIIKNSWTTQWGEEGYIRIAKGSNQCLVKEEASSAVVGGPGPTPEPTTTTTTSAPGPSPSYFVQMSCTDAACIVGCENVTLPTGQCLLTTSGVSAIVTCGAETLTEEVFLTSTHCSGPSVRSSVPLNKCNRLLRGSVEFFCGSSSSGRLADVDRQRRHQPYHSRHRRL
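Detergent-free condition (0.00005% Triton X-100) in acetate buffer pH 5.5 with DTT. 1.5 nM enzyme and compound were pre-mixed 15 min, then 2 uM Z-FR-AMC substrate added; reaction progress from fluorescence change between first and third reads (60 s).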
SARS PLpro yeast = qHTS of Yeast-based Assay for SARS-CoV PLP; S. cerevisiae expressing SARS-CoV PLpro, growth rescue; control for the full effect not named in the record; AID 485353, 2010; hit rate 0.19% among 330,000; Potency, µM (highest dose often 32.9 µM), inactives show at the highest dose activity, positive = growth rescue; also: 0% is about no effect; nearly all actives have a fitted effect of over 55% in size; growth read by luminescence after 48 h
Marburg entry inh = qHTS for inhibitors of binding or entry into cells for Marburg Virus; Marburg virus pseudotyped entry inhibition, cell reporter; control for the full effect not named in the record; about a third of the inactives were read at about 46 µM; Potency, µM (series often up to 37.8 µM), for the others: at the top dose activity change, negative = inhibition, hits mostly inhibitors; hit rate 1.8% among 300,000; AID 540276, 2011; active = well fitted inhibition curve with a large enough effect; inconclusive = small, poorly fitted or top-dose-only effect, or effect the other way; inactive = flat fitted curve, though single readings scatter; tested in HEK293 cells; about a fifth of its hits are not listed in these tables; also: % is scaled to controls: 0 for no effect and ±100 for the full control effect; luciferase read-out
Cruzain inh Det = qHTS Assay for Promiscuous and Specific Inhibitors of Cruzain (with detergent). purified cruzain, Z-FR-AMC fluorescence, 0.01% Triton. Cruzipain (Trypanosoma cruzi), P25779. Potency, µM, inactives show max response, negative = inhibition, hits mostly inhibitors. hit rate 0.43% among 200,000; active = well fitted curve in the direction sought with a large enough effect; inconclusive = small, poorly fitted or top-dose-only effect, or another doubt; inactive = no such curve, though single readings can be large; an effect the other way counts as inactive or inconclusive;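 also: plate controls were neutral wells for no effect and buffer without enzyme for full effect; nearly all actives have a fitted effect of over 40% in size; top concentration of the series not given in the record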
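In this qHTS format, compounds are incubated with 1.5 nM cruzain for 15 min at room temperature before 2 uM Z-FR-AMC is added. Release of AMC is followed at 360/450 nm, and progress is taken as the 60 s fluorescence difference.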
NS1 inh = qHTS Assay for Inhibitors of Influenza NS1 Protein Function; S. cerevisiae slowed by influenza A NS1, growth recovery by OD600; Potency, µM (series often up to 46.1 µM), for the others: at the highest dose activity, positive = more growth; hit rate 0.4% among 270,000; also: actives are rising curves; nearly all actives have a fitted effect of over 50% in size
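Growth recovery, yeast-based: influenza A NS1 expressed in S. cerevisiae causes slow growth, and suppressors are detected by OD600. The parent strain without NS1 is used as positive control.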
StopGo reporter = High Throughput Screening for Foot and Mouth Disease Virus Antivirals; human cells with a luciferase reporter of 2A StopGo recoding; control for the full effect not named in the record; Potency, µM (series often up to 57.9 µM), for the others: at the top dose signal change, negative = less light; hit rate 1.2% among 410,000; AID 1159524, 2015; active = well fitted falling curve with a large enough effect; inconclusive = small, poorly fitted or top-dose-only effect; inactive = no such curve, though single readings can be large or run the other way; tested in HEK293T cells; also: % is scaled to controls: 0 for no effect and ±100 for the full control effect; nearly all actives have a fitted effect of over 45% in size; luciferase light after 4 h
An asterisk follows results filed as active; ? = inconclusive; · = not tested or not shown; & = joins results of further samples; [ ] = another dose, or the depositor's remark. Unless noted, calls follow the shape of the dose curve; as a rule, active means well fitted rising curve with a large enough effect; inconclusive means small, poorly fitted or top-dose-only effect; inactive means no such curve, though single readings can be large or run the other way. Potency is read from the fitted curve at half-maximal effect.

SMILES	Lassa entry inh	RE007 growth inh	Cruzain noTriton	SARS PLpro yeast	Marburg entry inh	Cruzain inh Det	NS1 inh	StopGo reporter
Cc1ccc(C(C)C)cc1S(=O)(=O)NCc1ccccn1	·	37%	·	-1%	·	·	-8%	98%[activator]
N#Cc1ccsc1NC(=O)C1CCCN1S(=O)(=O)c1cccs1 (stereo not given)	-3%	11%	·	-2%	6%[46.1 µM]	·	·	-23%
CSc1nc(=S)cc(C)[nH]1	-5%	-24%	·	-3%	5%	·	-2%	-7%
COc1cccc(C(=O)N(Cc2ccc(C)o2)C2CCS(=O)(=O)C2)c1 (stereo not given)	25%[46.1 µM]	·	-3%	·	-12%[46.1 µM]	-1.1%	·	4%
CCC(C)(C)NC(=O)c1ccc(Sc2nncn2C)c([N+](=O)[O-])c1	6%	-5%	-9%	6%	5%	-1.0%	24%	6%
Cc1cccc2c1NC(=O)C21N2CCCC2C(C(=O)c2ccc3ccccc3c2)C12C(=O)Nc1ccccc12 (stereo not given)	·	-10%	·	-2%	·	·	3%	18%
O=C(NCc1cccnc1)/C(=C/c1ccc([N+](=O)[O-])cc1)NC(=O)c1ccccc1	-1%[46.1 µM]	0%	·	16%	-12%[46.1 µM]	·	·	10%
O=C(COC(=O)c1cc(Br)ccc1O)NCC1CCCO1 (stereo not given)	-4%	24%	·	2%	?	·	·	-3%
COC1(OC)N=C(NC(=O)Nc2ccccc2)C2(C#N)C(c3ccccc3)C12C#N (stereo not given)	4%	2%	-4%	1%	4%[46.1 µM]	0.8%	-31%	2%
Cc1nc([N+](=O)[O-])cn1Cc1cccc2ccccc12	·	3%	·	0%	·	·	0%	-13%
COC(=O)CC(NS(=O)(=O)c1cccs1)c1ccccc1Cl (stereo not given)	?	-9%	-3%	9%	11%	0.7%	0%	0%
CCCOc1ccc(C(C)=O)cc1CSc1nc(O)cc(=O)[nH]1	-4%	-1%	-11%	11%	-4%	-5.5%	?	-10%
O=C(c1ccc2c(c1)OCO2)N(Cc1cccs1)C1(C(=O)NC2CCCCC2)CCCCC1	?	5%	-2%	-84%	8.9µM*	-2.3%	0%	?
COc1cccc(N2CCN(C(=O)CCCCCNc3nc(=S)[nH]c4ccccc34)CC2)c1	-18%	-1%	·	1%	?	·	7%	25µM*
COc1ccc(/C=N/NC(=O)c2cccc3ccccc23)c(OC)c1OC	?	-12%	·	·	-14%[46.1 µM]	·	·	18%
N#C/C(=C/c1ccc([N+](=O)[O-])cc1)C(N)=O	-9%	-14%	·	-1%	-2%	·	0%	-15%
O=C(COc1cccc2cccnc12)Nc1ccccc1N1CCOCC1	-26%	5%	·	-4%	-13%[46.1 µM]	·	·	-19%
CC(/C=C/c1ccc2c(c1)OCO2)=N/NC(=O)c1ccc(C)nc1	-26%	-23%	-5%	-4%	-20%	-9.6%	-4%	0%
O=c1cccc2n1CC1CC2CN(Cc2c(Cl)cccc2Cl)C1 (stereo not given)	6%	9%	3%	1%	13%	2.6%	-43%	-4%
CC(C)c1nn2c(=O)cc(COC(=O)c3ccc(NC(=O)COc4ccccc4)cc3)nc2s1	26%[46.1 µM]	·	-10%	·	·	-0.2%	·	8%
COc1ccc(C(CNC(=O)CNC(=O)c2cccc(Cl)c2)N2CCCC2)cc1 (stereo not given)	-1%	-6%	·	-3%	?	·	·	-14%
O=C(COc1ccc(F)cc1)Nc1ccc(Cl)c(-c2nc3ccccc3[nH]2)c1	?	·	-23%	·	?	-7.1%	·	-20%
CCOC(=O)CCSc1nc(C)cc(C(F)(F)F)c1C#N	0%	-20%	-2%	-3%	13%&13%	-2.8%	-2%	·
CC(=O)c1ccc(N2CCN(C(=O)CCc3nnc4n(C)c(=O)c5sccc5n34)CC2)cc1	-13%[46.1 µM]	·	-2%	·	6%[46.1 µM]	-1.2%	·	-2%
CCCOc1ccc(CNC(=S)N/N=C/c2ccc([N+](=O)[O-])cc2)cc1	?	10%	?	14%	-13%	-18%	4%	-1%
CCOc1ccccc1CN1CCc2nc(N3CCN(c4ccccc4F)CC3)ncc2C1	-18%[46.1 µM]	·	8%	·	·	-0.4%	·	28µM*
CC/C(=N\NC(=O)CSCc1ccccc1Cl)c1ccc2c(c1)OCCO2	?	1%	-3%	0%	?	-5.4%	-4%	-10%
CCN(CC)S(=O)(=O)c1cc(C(=O)Nc2ccccc2C(=O)O)ccc1OC	-13%	-16%	-3%	-9%	7%	-0.2%	?	86%[activator]
OC(CNc1ncnc2sccc12)c1ccccc1 (stereo not given)	?	0%	·	1%	?	·	-2%	2%
COc1ccc(-c2cc(C(=O)Nc3ccn(Cc4ccc(C)cc4)n3)no2)cc1OC	?	·	5%	·	?	-2.5%	·	-13%
COc1ccc(C2(c3ccc(OC)cc3)NC(=O)N(CC(=O)N(C)c3ccccc3)C2=O)cc1	?	6%	·	·	-24%[46.1 µM]	·	10%	-5%
O=C(NCC1CCCO1)C(=O)N/N=C/c1cccc(Cl)c1 (stereo not given)	19%	5%	·	0%	-2%	·	15%	15%
COc1cc(/C=C2\SC(N)=NC2=O)cc(Cl)c1O	·	7%	·	-4%	·	·	0%	-4%
COC(=O)CNC(=O)COC(=O)c1cc(Cl)cc(Cl)c1N	-2%	0%	-7%	-9%	1%	-8.0%	-1%	10%
CC1CCN(C(=O)CNC(=O)Cn2ccc3ccccc3c2=O)CC1	·	3%	-7%	-3%	·	3.9%	3%	-24%
CCn1c(N2CCN(Cc3ccc([N+](=O)[O-])cc3)CC2)nc2ccccc21	·	2%	·	1%	·	·	-48%	?
O=C(NCCN1CCN(c2ccccc2F)CC1)C1c2ccccc2C(=O)N2CCc3ccccc3C12 (stereo not given)	-14%	4%	1%	-6%	-3%	2.6%	-12%	-11%
COc1ccc(NC(=O)CCOc2ccc(C)cc2)cc1S(=O)(=O)N1CCOCC1	-1%	2%	·	-4%	-9%	·	·	-10%
CCOC(=O)Cn1nnc2c(sc3nc4c(c(-c5ccc(Cl)cc5)c32)CCC4)c1=O	?	12%	?	?	?	-1.5%	?	0%
C/C(=N\NC(=O)c1ccoc1C)c1ccccc1O	?	-26%	·	-16%	?	·	-33%	25%

Copied from the results shown, four compounds:
SMILES	Lassa entry inh	RE007 growth inh	Cruzain noTriton	SARS PLpro yeast	Marburg entry inh	Cruzain inh Det	NS1 inh	StopGo reporter
O=C(NCCN1CCN(c2ccccc2F)CC1)C1c2ccccc2C(=O)N2CCc3ccccc3C12 (stereo not given)	-14%	4%	1%	-6%	-3%	2.6%	-12%	-11%
COc1ccc(NC(=O)CCOc2ccc(C)cc2)cc1S(=O)(=O)N1CCOCC1	-1%	2%	·	-4%	-9%	·	·	-10%
CCOC(=O)Cn1nnc2c(sc3nc4c(c(-c5ccc(Cl)cc5)c32)CCC4)c1=O	?	12%	?	?	?	-1.5%	?	0%
C/C(=N\NC(=O)c1ccoc1C)c1ccccc1O	?	-26%	·	-16%	?	·	-33%	25%

Look-ups from the entries so far:
RE007 growth inh result of C/C(=N\NC(=O)c1ccoc1C)c1ccccc1O : -26%
StopGo reporter result of COc1ccc(C2(c3ccc(OC)cc3)NC(=O)N(CC(=O)N(C)c3ccccc3)C2=O)cc1 : -5%
Marburg entry inh result of COc1ccc(NC(=O)CCOc2ccc(C)cc2)cc1S(=O)(=O)N1CCOCC1 : -9%

(list continues)
SMILES	Lassa entry inh	RE007 growth inh	Cruzain noTriton	SARS PLpro yeast	Marburg entry inh	Cruzain inh Det	NS1 inh	StopGo reporter
CCC(Sc1nc2c(cnn2-c2ccc(Cl)cc2)c(=O)[nH]1)C(=O)OC (stereo not given)	0%	-2%	?	16%	1%	-1.6%	0%	0%
O=C(COC(=O)c1cnccn1)c1ccc(OC(=O)c2ccccc2)cc1	8%	7%	?	-3%	0%	5.4%	7%	8%
O=[N+]([O-])c1ccc(N/N=C/c2c[nH]c3ccccc23)c(S(=O)(=O)Nc2ccc(Cl)cc2)c1	-27%	-16%	?	1%	-28%	0.2%	7%	98%[activator]
Cc1cc(C)cc(-n2c(/C=C/c3cccc(F)c3)nc3ccccc3c2=O)c1	?	·	?	·	·	0.8%	·	-26%
CCC(=O)Nc1ccc(NC(=O)c2cccc3c(Br)cccc23)cc1	·	8%	·	26%	·	·	-4%	-6%
Cc1c(Cl)cccc1NC(=O)CSc1ccc(-c2ccccn2)nn1	1%[46.1 µM]	·	-4%	·	·	-0.5%	·	4%
CCCCN(C)CCCNC(=O)C1CCN(S(=O)(=O)CCC)CC1	21%[46.1 µM]	·	?	·	·	1.1%	·	0%
COc1ccc2cc(C(c3nnnn3CC3CCCO3)N3CCOCC3)c(=O)[nH]c2c1 (stereo not given)	3%	-5%	-9%	1%	12%	0.9%	-4%	15%
Cc1ccccc1C(=O)NC(=S)NC1CC1	6%[46.1 µM]	7%	·	4%	?	·	2%	15%
NS(=O)(=O)c1ccc(CNC(=O)/C=C/c2ccc(S(=O)(=O)N3CCOCC3)cc2)cc1	·	-8%	·	0%	·	·	0%	-3%
O=C(Cc1n[nH]c(=O)[nH]c1=O)N/N=C/c1ccccc1	-5%	-6%	1%	-3%	3%	2.0%	0%	·
CC1CN(S(=O)(=O)c2ccc(CN3C(=O)c4cccnc4C3=O)s2)c2ccccc2O1 (stereo not given)	·	-1%	·	16%	·	·	-3%	27%
CCOC(=O)C1CCN(C(=O)c2ccc(C)c(S(=O)(=O)N3CCCC3)c2)CC1	2%	1%	·	-1%	2%	·	2%	45%[activator]
CSc1cccc(NC(=O)/C=C/c2ccco2)c1	-3%	-25%	·	-6%	17%[46.1 µM]	·	·	72%[activator]
C=CCc1ccccc1OCC(O)CN1CCN(CCO)CC1 (stereo not given)	·	3%	·	2%	·	·	1%	-25%

This is a random part of the collection; overall some 4.7% were active at least once.
